Ecoli rRNA inh = inhibits bacterial ribosomal RNA function over humanized ribosomes. E. coli WT GFP vs humanized-ribosome RFP mutants, fluorescence, 24 h; active compounds read low; DMSO median 0, no signal -100. GFP signal change (wild-type ribosome), % (no concentration beside the values). actives 1.6% (n = 350,000);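 active = significant combined selectivity score with lowered wild-type GFP, culture density cut under 30%, mutant RFP and density less affected; inactive = any of these conditions unmet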; note: one replicate is shown; some compounds called inactive have numbers as strong as hits
T cruzi inh = T. cruzi replication inhibition. T. cruzi beta-gal in NIH3T3, luminescence, 90 h. inhibition, % (test concentration not listed). actives 1.4% (n = 300,000);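 active = mean inhibition across valid replicates above about 55%, limit read from the data; inconclusive = mean below that limit but half or more replicates reach it; inactive = mean below it, under half of replicates reach it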;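 note: signal also drops with host cell toxicity which is not excluded here; 0% = plate median of DMSO wells and 100% = zero luminescence signal; higher percent means less beta-gal luminescence so fewer parasites; stock transfer was 50 nL into about 50 µL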
Vif A3G = inhibitors of Vif binding to APOBEC3G peptide, primary screen, biochemical, TR-FRET, GST-Vif 1-94, biotin-A3G peptide, dose response retest (AID 1117319); TR-FRET GST-Vif / biotin-A3G peptide binding; higher % means a stronger effect; test concentration not given here; strong numbers were not always called active; inhibition, %; hits with a dose series show IC50 in µM; actives 0.57% (n = 260,000);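 active = above the screen mean plus three standard deviations and confirmed in dose response; inconclusive = results disagree or hit not tested in dose response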;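 note: Vif residues 1-94 fused to GST binding biotinylated APOBEC3G peptide 110-148; 0% = full assay without inhibitor and 100% = GST in place of GST-Vif; retest series ran down from 100 µM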
Beta cell apopt = blocks beta cell apoptosis. protection from apoptosis, % (test concentration not listed). actives 0.8% (n = 300,000). AID 435005. INS-1E cytokine-induced death, ATP luminescence, 48 h; percent of positive-control rescue, neutral wells zero;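 active = all replicates at 75% or more, or half of them and the mean; inconclusive = half reach 75% but not the mean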;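 note: 0% = cytokine-treated negative control wells and 100% = positive control rescue; higher means more ATP so stronger rescue from cytokine killing; wells of about 40 µL received 100 nL stock; the first replicate is given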
Bfl-1 A1 inh = inhibitors of the anti-apoptotic protein A1, read as caspase activation; MEF A1-2A-BIM cells, Caspase-Glo 3/7 luminescence, 3 h; percent of clofoctol response, vehicle zero; actives 0.066% (n = 330,000); caspase activation, % (concentration not given with the values);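 active = over half of replicate activation scores above 10%, or exactly half above 10 with the replicate mean above 10; inconclusive = replicate mean below 10 yet half the replicates above 10; inactive = over half of replicates below 10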;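 note: wells of about 30 µL received 50 nL stock; many hits fall short of the cut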
Calb FLC = affects C. albicans growth with fluconazole; growth inhibition, % (no concentration beside the values); AID 1979; actives 0.57% (n = 300,000); C. albicans CaCi-2 (fluconazole-resistant clinical isolate) + fluconazole, Alamar Blue growth, 48 h;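 active = most replicates above 75%; inconclusive = exactly half above 75%; inactive = most below 75%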;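 note: all wells also contain fluconazole at 8 µg/ml as a sub-toxic cotreatment; 0% = median of DMSO wells and 100% = median of geldanamycin control wells; wells of about 8 µL received 7.5 nL stock; the first replicate is given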
MLL AF4-AF9 inh = blocks AF4 peptide binding to human AF9; P42568; AlphaScreen, biotin-AF4 peptide binding to FLAG-AF9; inhibition, % at 10 µM; actives 0.47% (n = 350,000); AID 651704;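 active = every replicate reaching a set inhibition limit, whatever the replicate mean, cut at about 25% in these data; inconclusive = mean inhibition reaches that limit but some replicates miss it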;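 note: 0% = plate neutral control median and 100% = total signal loss; the record names both 10 and 1 µM as test concentration; the first replicate is given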
Target sequence (P42568 whole entry, looked up): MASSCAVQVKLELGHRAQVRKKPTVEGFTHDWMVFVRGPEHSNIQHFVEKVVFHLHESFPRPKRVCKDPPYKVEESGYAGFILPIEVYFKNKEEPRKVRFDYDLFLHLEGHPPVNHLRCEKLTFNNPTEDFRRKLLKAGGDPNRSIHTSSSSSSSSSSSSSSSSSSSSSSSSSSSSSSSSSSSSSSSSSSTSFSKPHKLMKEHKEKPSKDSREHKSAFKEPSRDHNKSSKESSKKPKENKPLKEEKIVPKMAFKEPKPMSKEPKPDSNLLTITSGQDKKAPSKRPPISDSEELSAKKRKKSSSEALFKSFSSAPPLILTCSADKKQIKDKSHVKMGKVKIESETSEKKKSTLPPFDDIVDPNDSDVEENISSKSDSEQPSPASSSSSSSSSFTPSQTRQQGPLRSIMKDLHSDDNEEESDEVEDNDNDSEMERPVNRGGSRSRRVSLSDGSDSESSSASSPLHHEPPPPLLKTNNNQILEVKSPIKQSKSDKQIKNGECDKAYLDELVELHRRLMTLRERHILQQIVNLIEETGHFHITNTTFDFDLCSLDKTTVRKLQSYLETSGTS
RanGTP-Imp inh = disruptors of Ran-importin-beta complex formation – biochemical, FRET, CFP-Ran, YFP-importin-beta, homogeneous, primary screen; cell-free CFP-Ran/YFP-importin-beta FRET ratio; inhibition, % (test concentration not listed); actives 1.1% (n = 300,000); AID 2216;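 active = most replicates above 15%; inconclusive = exactly half above 15%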;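 note: 0% = DMSO wells and 100% = Ran loaded with GDP instead of GTP; wells of about 40 µL received 100 nL stock; the first replicate is given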
Ecoli rRNA inh OD600 = also measured in Ecoli rRNA inh; calls as there; OD600 change, %; measured here: OD600 growth;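 optical density of the mix in the first replicate; 0 = DMSO median and -100 = no signal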
Ecoli rRNA inh RFP = second read-out of Ecoli rRNA inh, no call of its own (marks repeat the call); RFP signal change, %; measured here: RFP humanized mutant strains;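 first replicate; 0 = DMSO median and -100 = no signal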
* = called active by the depositor; ? = inconclusive; . = no result given; & = joins results of further samples.

Second line of a record – Ecoli rRNA inh	Ecoli rRNA inh OD600	Ecoli rRNA inh RFP	T cruzi inh	Vif A3G	Beta cell apopt	Bfl-1 A1 inh	Calb FLC	MLL AF4-AF9 inh	RanGTP-Imp inh
> CN(CCc1ccccn1)C(=O)c1nn2c(C(F)(F)F)cc(-c3ccco3)nc2c1Cl
  .	.	.	-10	19%	2	0.9	1	.	0.9
> CCOC(=O)c1cnc2c([N+](=O)[O-])cnn2c1C
  8	2	4.0	-5	-10%	5	0.4	-1	-14	-0.5
> C/C(=N\NC(N)=S)c1ccncc1
  6	-9	-0.1	-7	1%	-4	0.3	0	-1.8	10.0
> COc1ccc(NCC(=O)Nc2cccc(C(F)(F)F)c2)cc1S(=O)(=O)N1CCOCC1
  1	11	0.7	.	.	0	-1.3	.	0.5	.
> CCCN1CCN(CCCNC(=O)c2cc3c(s2)-c2c(C)cccc2OC3)CC1
  6	-7	22	22	.	46	-0.3	9	10	3.4
> COc1ccc(C(=O)C2CCCN(Cc3cccn3-c3ccc(Cl)cn3)C2)c(OC)c1 (stereo unspecified)
  4	11	3.1	79*	0%	8	1.1	-10	16	4.6
> CCC1CCc2c(sc3nc(SCC(=O)NCc4ccco4)n(-c4ccccc4)c(=O)c23)C1 (stereo unspecified)
  .	.	.	27	-7%	10	-0.7	3	.	0.1
> Cc1occc1C(=O)n1cnc2ccccc21
  .	.	.	-8	8%	-6	0.0	15	.	3.1
> CCOc1cccc(/C=N/NS(=O)(=O)c2ccc(C)c([N+](=O)[O-])c2)c1O
  -8	-10	-4.3	-7	-3%	2	-0.2	?	2.2	4.7
> Cc1ccccc1-c1noc(C(C)NC(=O)c2ccco2)n1 (stereo unspecified)
  -9	-20	-3.1	10	.	5	0.1	-6	-1.8	-1.1
> O=C(NCc1ccncc1)C1CCC(=O)N(CCc2ccc(Cl)cc2)C1 (stereo unspecified)
  7	10	1.7	0	.	-4	-0.6	3	-0.8	2.3
> O=C(NCC(c1ccco1)N1CCCCC1)c1cccc(NS(=O)(=O)c2ccc(Br)cc2)c1 (stereo unspecified)
  -12	-53	10	-4	-1%	3	-0.6	20	8.2	0.0
> O=S1(=O)CCN2C(c3ccco3)=CSC2=N1
  .	.	.	3	3%	-4	-0.8	15	.	-3.2
> COc1ccc(CCNC(=O)CC2SC(=NCCc3ccccc3)NC2=O)cc1 (stereo unspecified)
  .	.	.	-16	.	-1	0.1	-25	.	-2.7
> Cc1oc(-c2cccc(Cl)c2)nc1CN1CCCC(C(=O)NC(C)c2ccc3c(c2)OCCO3)C1 (stereo unspecified)
  -54	-78	-6.4	45	?	14	0.3	-6	7.8	1.0
> O=C(C1CCN(c2nnc(-n3cccc3)s2)CC1)N1CCN(Cc2ccc3c(c2)OCO3)CC1
  -4	-9	-0.1	26	2%&-8%	-4	0.2	-4	-0.8	4.0
> COC(=O)Nc1c(-c2ccccc2)nc2ccc(C)cn12
  .	.	.	.	-2%	-2	0.4	-5	.	-1.1
> C=Cc1c(C)c2cc3[nH]c(cc4nc(cc5nc(cc1[nH]2)C(C)=C5CCC(=O)O)C(CCC(=O)O)=C4C)c(C)c3C=C
  .	.	.	-5	.	0&20	0.6&-0.1	-2	-53	-0.9
> COc1ccccc1OCCNC(=O)Nc1cc(F)c(F)cc1Cl
  5	7	-1.2	8	.	-3	0.6	-2	-2.1	-0.3
> Cc1cccc(-n2ccnc2SCC(=O)Nc2nnc(C)s2)c1
  3	-3	-1.2	9	18%	-7	0.6	3	2.9	-0.8
> CCOC(=O)c1[nH]ncc1CN1CCc2ccc(NC(=O)C3CCCO3)cc2C1 (stereo unspecified)
  18	12	0.9	-3	.	-5	-0.3	-1	2.3	-10.0
> O=c1c2oc3nc4c(cc3c2ncn1CCCc1ccccc1)CCCC4
  -5	1	-0.1	38	-33%	-1	0.0	14	-1.0	?
> O=C(c1cccc([N+](=O)[O-])c1)c1ccc2c(c1)OCCOCCOCCO2
  0	5	-0.3	4	18%	0	0.4	-3	-2.6	-1.1
> Nc1c(Cl)ncnc1N/N=C/c1cccnc1
  8	7	-1.0	17	19%	.	-1.2	-2	-2.3	1.0
> CC1(c2ccccc2)NC(=O)N(CC(=O)Nc2ccc([N+](=O)[O-])cc2)C1=O (stereo unspecified)
  -13	-6	0.1	-3	14%	3	0.4	1	6.6	2.7
> CCN(Cc1cnn(C)c1)C(=O)c1cc(COc2ccc3c(c2)CCCC3)on1
  -49	-76	-12	1	3%	8	-0.6	-16	0.6	-0.6
> CCCCn1c(CCC(=O)O)ccc1-c1cccs1
  -3	8	1.6	3	10%	-2	-0.2	0	-0.3	8.6
> CN(CC(=O)O)Cc1nc2ccccc2[nH]1
  .	.	.	-20	?	-1	-1.1	6	.	8.1
> O=C(C1CC1)N1CCc2cc(Br)cc(S(=O)(=O)NC3CCCCC3)c21
  .	.	.	23	11%	1	-0.8	-6	.	-1.1
> CN1CCC2(CC1)N=C(c1ccc(F)cc1)C(=S)N2C(=O)c1ccccc1
  11	-6	-8.8	27	.	-3	-0.1	7	3.3	-3.0
> COc1ccc2c(c1)c(C(C)=O)c(C)n2-c1ccccc1OC
  -36*	-21*	-7.9*	5	.	-11	0.7	2	.	1.6
> N#Cc1ccccc1S(=O)(=O)N1CCN(C(=O)Cc2coc3cc(O)ccc23)CC1
  0	0	0.9	.	-8%	-3	0.8	.	1.3	.
> CC(C)c1ccc(OCC(=O)NC2CCCC2)cc1
  -8	-11	-2.3	4	7%	-2	-0.8	-17	-1.7	0.4
> CC(C)N1CCc2c(sc(NC(=O)c3nc4ccccc4s3)c2C(N)=O)C1
  -12	-7	8.5	7	9%	4	1.0	119*	4.0	-0.3
> COc1cc(/C=C2/C(=O)N(c3ccc(Br)cc3)N=C2C)cc(OC)c1OC
  1	4	-1.4	-20	41%	.	.	1	.	-3.4
> Cc1ccc(/C=N/NC(=O)CNC(=O)Cc2ccccc2)o1
  20	10	-5.4	-11	.	-12	-0.8	-7	0.4	3.9
> COc1cc(C(=O)N/N=C(\C)Cn2nc([N+](=O)[O-])cc2C)ccc1O
  .	.	.	-5	1%	-1	0.3	-1	.	-5.0
> Cc1cccc2sc(NS(C)(=O)=O)nc12
  5	1	0.8	-3	-9%	-5	0.2	9	-1.4	?
> CCn1nc(C)c(Br)c1-c1nc(-c2cccc(C)c2)no1
  9	10	7.6	-19	?	.	-0.4	0	-0.1	-1.2
> O=C(NCc1cccnc1)NC1(c2ccccc2)CC1
  6	4	-3.8	-16	-3%	2	0.5	2	?	-3.2
> COc1ccccc1N1CCN(C2CC(=O)N(c3ccc(Cl)cc3)C2=O)CC1 (stereo unspecified)
  -6	-7	-1.3	6	.	0	1.1	-1	-0.8	0.2
> O=c1/c(=C/c2ccc([N+](=O)[O-])cc2)sc2n1CCCN=2
  .	.	.	8	12%	4	-5.1	-2	.	3.6
> Cc1cccc(C(=O)Oc2ccc(/C=N/NC(=O)c3ccc(O)cc3)cc2)c1
  -3	-3	-1.6	4	.	-5	-0.7	43	-0.9	1.7
> CC(C)(C)n1nnnc1C(c1cc2cc3c(cc2[nH]c1=O)OCCO3)N1CCSCC1 (stereo unspecified)
  .	.	.	-5	15%	-6	-0.1	0	.	-1.6
> COc1ccc(CCNC(=O)c2ccccc2SC)cc1
  -3	2	-3.9	-8	.	-4	-0.2	3	-1.6	-0.1
> N#Cc1cc(S(=O)(=O)c2ccc(Cl)cc2)c(N)[nH]c1=O
  11	8	-0.5	-46	-8%	-1	0.1	-12	-2.0	12
> C=CCSc1nnc(-c2ccc([N+](=O)[O-])cc2)o1
  7	6	-0.8	-9	4%	4	-2.3	-21	3.5	7.4
> C/C(=N\NC(=O)c1ccc(CSc2nncn2C)cc1)c1cccs1
  20	12	-1.5	-3	.	1	-0.4	5	-1.4	?
> COC(=O)c1ccc(NC(C(=O)OC)C(C)C)c([N+](=O)[O-])c1 (stereo unspecified)
  .	.	.	-3	0%	-4	-0.4	5	.	1.1
> Clc1ccc(-c2nnc(-c3ccc(Br)cc3)c(N3CCSCC3)n2)cc1
  .	.	.	8	-69%	.	0.5	17	.	-1.6
> O=C(Nc1ncc([N+](=O)[O-])s1)c1ccco1
  .	.	.	13	-2%	22	-0.2	?	-0.6	1.2
> COC(=O)c1cccc(NC(=O)c2onc3c2CCCC3)c1
  4	-10	-3.8	11	-1%	7	-6.0	9	-0.8	-0.8
> COC(=O)Nc1cc(C)nc2ccccc12
  .	.	.	2	1%	0	-0.5	7	.	4.3
> NC(=O)N/N=C/c1coc2ccc(O)cc2c1=O
  -8	-7	-2.5	16	.	-8	-0.5	4	-0.8	-2.8
> CN(C)S(=O)(=O)N(CC(=O)Nc1cccc(F)c1)c1ccccc1
  .	.	.	-8	?	-4	0.7	-27	.	2.2
> O=C(NCC(c1cccs1)N1CCOCC1)c1cc(-c2ccc(F)cc2)nc2ccccc12 (stereo unspecified)
  -5	-5	1.1	14	.	-1	1.5	2	1.5	0.0
> O=C(Nc1cc(S(=O)(=O)N2CCOCC2)ccc1N1CCOCC1)c1ccc(Cl)nc1
  16	8	-7.8	6	.	-8	0.1	-6	9.6	-0.3
> O=c1[nH]ncc(N/N=C/c2ccccc2)c1Cl
  .	.	.	-3	2%	.	.	-5	.	-2.1
> C=CCOc1cc(OC)c(OC)c(OC)c1
  1	2	-1.8	-4	5%	-6	0.6	8	-1.1	-1.7
> COc1ccc(Cc2noc(CN3CCN(c4ccc(Cl)cn4)CC3)n2)cc1OC
  -17	-11	12	9	.	2	1.3	6	4.6	4.4

(more compounds)
Second line of a record – Ecoli rRNA inh	Ecoli rRNA inh OD600	Ecoli rRNA inh RFP	T cruzi inh	Vif A3G	Beta cell apopt	Bfl-1 A1 inh	Calb FLC	MLL AF4-AF9 inh	RanGTP-Imp inh
> Cc1c(C(=O)NC(=S)Nc2cccnc2)cccc1[N+](=O)[O-]
  12	2	-2.8	1	.	4	0.6	-5	-2.3	?
> CCCn1c(-c2cccs2)nc2c1c(=O)[nH]c(=O)n2Cc1ccccc1
  24	16	1.6	31	.	-5	-0.9	-8	-0.8	1.4
> Cc1cc2c(c(=O)n1Cc1ccco1)C(c1cccnc1)C(C#N)=C(N)O2 (stereo unspecified)
  .	.	.	8	-2%	-1	-0.4	-12	.	1.9
> CCC(OC(=O)c1ccco1)C(=O)NCc1ccco1 (stereo unspecified)
  .	.	.	-37	?	-4	0.2	-3	.	1.7
> Cn1c(SCC(=O)c2cccs2)nnc1-c1ccco1
  1	2	0.6	-12	18%	.	-1.3	6	2.6	-5.3
> Cc1nc2c(C#N)cnn2c2c1CCNN2C
  12	3	-1.7	-13	-6%	-7	1.1	-3	-0.4	5.2

From PubChem

An excerpt; rates above refer to the full screens.
